rCAG RNA binder – binders of r(CAG) RNA repeats, primary screen, biochemical, fluorescence; r(CAG) RNA repeat, TO-PRO-1 dye displacement fluorescence; inhibition, % at 3 µM; 370,000 compounds, 1.3% hits; AID 651821, 2012;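 active = inhibition above the plate cutoff, the mean of all test compounds on that plate plus 3 SD, cut at about 35% in these data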;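 note: 0% = DMSO alone and 100% = 100 µM mitoxantrone as full dye displacement; higher means more dye released from RNA so lower well fluorescence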
PRMT1 FP inh – PRMT1 methyltransferase inhibitors, primary screen, biochemical, fluorescence polarization. Protein arginine N-methyltransferase 1 (Homo sapiens), Q99873. recombinant PRMT1, activity-based probe fluorescence polarization. inhibition, % at 2.79 µM. 370,000 compounds, 1.3% hits. AID 652257, 2013;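 active = inhibition above about 21% made by adding two undisclosed values, limit read from the data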
Target sequence (Q99873 whole entry, looked up): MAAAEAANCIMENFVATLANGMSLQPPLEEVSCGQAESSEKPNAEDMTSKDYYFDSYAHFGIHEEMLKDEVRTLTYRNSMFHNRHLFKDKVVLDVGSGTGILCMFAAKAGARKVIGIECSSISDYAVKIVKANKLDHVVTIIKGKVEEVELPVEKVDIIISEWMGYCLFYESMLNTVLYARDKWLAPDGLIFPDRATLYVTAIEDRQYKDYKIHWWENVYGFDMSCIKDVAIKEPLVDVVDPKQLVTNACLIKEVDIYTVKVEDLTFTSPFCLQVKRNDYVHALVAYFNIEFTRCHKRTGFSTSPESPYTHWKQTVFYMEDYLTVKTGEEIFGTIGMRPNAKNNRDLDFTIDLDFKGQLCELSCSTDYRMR
MBD2 DNA inh – inhibitors of MBD2 binding to methylated DNA, primary screen, biochemical, TR-FRET, DNA-binding domain, human; Methyl-CpG-binding domain protein 2 (Homo sapiens), Q9UBB5; MBD2 binding to methylated oligonucleotide; inhibition, % at 4.4 µM; 370,000 compounds, 0.31% hits; in the data active = inhibition above about 13%
SIAE primary – human SIAE inhibitors, primary screen, biochemical, fluorescence polarization, FP-Rh probe, 1536-well HTS; Sialate O-acetylesterase (Homo sapiens), Q9HAT2; SIAE FP-Rh probe binding; inhibition, % at 9.66 µM; 370,000 compounds, 0.69% hits;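 active = inhibition above a cutoff: mean of compounds within the control limits plus 3 SD of those, cut at about 17% in these data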;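 note: 0% = plate median of compound wells and 100% = probe without SIAE protein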
GC-B act – human GC-B receptor activators, primary screen, HEK293 GC-B cells, cGMP TR-FRET, EC30 CNP; Atrial natriuretic peptide receptor 2 (Homo sapiens), P20594; 0% at EC30 CNP, 100% saturating CNP; activation, % at 10 µM; 370,000 compounds, 0.11% hits; AID 1920062, 2024;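 active = activation at 10 µM reaching about 35% in either raw or pattern-adjusted values, limit read from the data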
mABHD4 FP – ABHD4 inhibitors, primary screen, biochemical, fluorescence polarization, mouse | AID 720543, 2013 | inhibition, % at 8.92 µM | 370,000 compounds, 0.54% hits | purified mABHD4, FP-Rh probe fluorescence polarization;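 active = inhibition exceeding the mean over every tested compound plus 3 SD, cut at about 30% in these data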;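 note: 0% = plate median of compound wells and 100% = S159A mutant with DMSO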
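Doses – 8.92 µM, single dose · Material – wild-type mouse ABHD4 protein · Replication – single well per compound (singlicate) · Measure – percent inhibition of probe binding, normalized to plate controls · Schedule – 45 min compound pre-incubation plus 60 min probe step, 25 °C · Detection – fluorescence polarization with parallel and perpendicular emission, 525/598 nm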
TCR CD3 inh – inhibitors of human TCR-CD3 interaction, primary screen, biochemical, fluorescence, TAMRA-labeled TCR probe; T-cell receptor (TCR); inhibition, % at 9.4 µM; 360,000 compounds, 0.37% hits; in the data active = inhibition above about 19%;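 note: recombinant mutant TCR 2C K166C tagged with TAMRA read by polarization; 0% = receptor in buffer alone and 100% = receptor with positive control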
TDP2 inh – human TDP2 enzyme inhibitors, primary screen, biochemical, epi absorbance, recombinant enzyme; Tyrosyl-DNA phosphodiesterase 2 (Homo sapiens), O95551; T5PNP hydrolysis, p-nitrophenol absorbance 415 nm; inhibition, % at 12.8 µM; 370,000 compounds, 0.34% hits;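 active = inhibition above the mean of all tested compounds plus 3 SD, set per campaign, cut at about 25% in these data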;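 note: 0% = DMSO with enzyme and 100% = buffer with substrate but no TDP2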
Target sequence (O95551 whole entry, looked up): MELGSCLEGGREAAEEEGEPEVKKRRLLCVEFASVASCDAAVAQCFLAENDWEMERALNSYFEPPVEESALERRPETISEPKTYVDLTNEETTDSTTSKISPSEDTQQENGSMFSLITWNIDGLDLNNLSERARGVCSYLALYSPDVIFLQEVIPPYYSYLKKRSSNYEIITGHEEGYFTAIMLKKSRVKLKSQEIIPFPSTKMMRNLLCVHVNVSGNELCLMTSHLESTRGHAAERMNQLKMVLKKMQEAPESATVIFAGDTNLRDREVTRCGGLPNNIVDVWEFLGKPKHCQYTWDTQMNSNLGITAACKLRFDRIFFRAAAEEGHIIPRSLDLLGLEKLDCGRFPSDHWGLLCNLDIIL
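Material: recombinant human TDP2; quantity: TDP2 enzyme at 120 nM final; medium: Tris-HCl pH 7.5 with MgCl2; compound: single concentration, 12.8 µM nominal, with 1% DMSO; incubation: 2 h enzyme incubation at 37 °C; signal: epi absorbance; measure: percent inhibition; benchmarks: high control without enzyme, low control DMSO plus TDP2; repeats: singlicate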
LEDGF integ inh – blockers of LEDGF/p75-dependent integrase strand transfer – biochemical, TR-FRET, high throughput, primary screen. inhibition, % at 3.7 µM. 370,000 compounds, 0.64% hits. TR-FRET IN-LEDGF/p75 DNA integration, Eu/Cy5;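 active = inhibition above the screen-wide mean plus 3 SD, cut at about 13% in these data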;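 note: signal is the Cy5 over europium emission ratio at 671 and 618 nm; 0% = plate median of compound wells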
The depositor's hits bear a star. Some of the compounds tested (hit frequency here may not be typical).

1. CCOCCCn1c(=S)[nH]c2cc(C(=O)NCCOC)ccc2c1=O
2. Cc1ccc(NCc2nnc(SCC(=O)NCc3ccco3)n2CC2CCCO2)c(C)c1 (stereo unspecified)
3. CCOc1ccccc1Oc1coc2cc(OC(=O)c3ccco3)ccc2c1=O
4. Cc1no[n+]([O-])c1COc1ccc(/C=N/n2nnnc2N)cc1
5. CC(C)C[C@H](NC(=O)c1nc[nH]c1C(=O)N1CCNCC1)C(=O)OC(C)(C)C
6. COc1ccccc1NC(=O)C(=O)N(c1cccnc1)C(C(=O)NC(C)(C)C)c1ccccc1 (stereo unspecified)
7. O=C(NN=Cc1c(F)c(F)c(F)c(F)c1F)c1ccc(NS(=O)(=O)c2cccs2)cc1
8. Cc1ccc(/C=C2/Sc3ccc(C(=O)N4CCN(C)CC4)cc3NC2=O)cc1
9. CCCNC(=O)c1ccc2c(=O)c(O)c(-c3ccc(Cl)c([N+](=O)[O-])c3)[nH]c2c1
10. CCCCOC(=O)Oc1ccc2c(=O)c(Oc3cc(C)cc(C)c3)coc2c1

| compound no. | 1 | 2 | 3 | 4 | 5 | 6 | 7 | 8 | 9 | 10 |
| --- | --- | --- | --- | --- | --- | --- | --- | --- | --- | --- |
| rCAG RNA binder | -4 | -9 | -3 | 5 | 0 | -5 | 17 | -10 | 15 | 2 |
| PRMT1 FP inh | 0 | -1 | 1 | -3 | -4 | -3 | 1 | 6 | 0 | -4 |
| MBD2 DNA inh | -7 | 4 | 3 | 3 | -4 | 0 | -5 | 1 | 2 | -3 |
| SIAE primary | 3 | 0 | 1 | 2 | 3 | 2 | 2 | -12 | 28* | 7 |
| GC-B act | -2 | 2 | 5 | 1 | -2 | 7 | -6 | 0 | -6 | 5 |
| mABHD4 FP | -5 | 7 | -4 | -2 | -1 | 2 | 3 | 8 | 14 | -4 |
| TCR CD3 inh | 1 | -6 | 7 | 4 | 4 | 6 | -4 | -2 | -3 | 4 |
| TDP2 inh | -1 | 5 | -3 | 13 | 6 | -2 | 6 | -12 | 5 | 12 |
| LEDGF integ inh | 1 | 0 | -6 | -1 | -1 | 5 | -1 | -4 | -7 | 1 |

11. c1ccc(Nc2cccc3c(Nc4ccccc4)cccc23)cc1
12. CC(Oc1ccccc1)C(=O)OCC(=O)NC(=O)NC1CCCCC1 (stereo unspecified)
13. O=C(Nc1ccccc1)c1cccnc1N1CCCC1
14. CCOC(=O)[C@@H](C)NS(=O)(=O)N(Cc1ccccc1)[C@H](C(=O)OC)C(C)C
15. O=C(C1CC(=O)N(c2ccc(F)cc2)C1)N1CCN(c2ccc(F)cc2)CC1 (stereo unspecified)
16. COc1ccc(-c2nnc(SC)o2)c(OC)c1
17. CSc1ncccc1C(=O)OCC(=O)NC(=O)NCCC(C)C
18. Cc1ccc2occ(/C=N/NC(=O)c3ccccc3O)c(=O)c2c1
19. COc1cccc(C2C(C(=O)Nc3cccnc3)=C(C)Nc3nnnn32)c1OC (stereo unspecified)
20. CC(C)C(C)(C#N)NC(=O)CSc1nnc(C(F)(F)F)n1C (stereo unspecified)
21. N#CC/C(N)=N/Nc1nc2ccccc2nc1Cc1ccccc1
22. O=C(Oc1cccc2cccnc12)c1cccs1
23. CCc1ccccc1NC(=O)Nc1cc(F)ccc1F

| compound no. | 11 | 12 | 13 | 14 | 15 | 16 | 17 | 18 | 19 | 20 | 21 | 22 | 23 |
| --- | --- | --- | --- | --- | --- | --- | --- | --- | --- | --- | --- | --- | --- |
| rCAG RNA binder | 7 | -3 | -2 | -9 | -5 | -3 | 0 | 2 | -4 | 1 | 24 | -1 | -3 |
| PRMT1 FP inh | 10 | 0 | 0 | 1 | -2 | 1 | -1 | 0 | 1 | 1 | -1 | 2 | 0 |
| MBD2 DNA inh | 0 | -3 | 3 | -2 | -3 | -2 | 1 | -1 | -2 | 3 | -4 | -7 | 5 |
| SIAE primary | 4 | -3 | 0 | 4 | -5 | -8 | -2 | 4 | -18 | -2 | 50* | 6 | 0 |
| GC-B act | 3 | 4 | 8 | -4 | 0 | 2 | 0 | 4 | 6 | 7 | 8 | 5 | -6 |
| mABHD4 FP | 23 | 6 | 0 | 2 | 3 | -3 | -2 | 5 | -1 | 1 | 0 | -2 | -8 |
| TCR CD3 inh | 6 | -11 | -4 | 8 | -4 | 4 | 5 | 35* | 2 | 1 | 8 | 8 | 0 |
| TDP2 inh | 4 | 5 | -2 | -4 | 4 | 12 | -10 | -7 | 1 | 5 | 5 | 7 | 8 |
| LEDGF integ inh | 2 | -1 | 2 | 1 | 1 | 0 | 1 | 18* | -2 | 2 | 0 | -4 | 2 |

Looked up by compound from the list above (6):
15. O=C(C1CC(=O)N(c2ccc(F)cc2)C1)N1CCN(c2ccc(F)cc2)CC1 (stereo unspecified)
13. O=C(Nc1ccccc1)c1cccnc1N1CCCC1
11. c1ccc(Nc2cccc3c(Nc4ccccc4)cccc23)cc1
22. O=C(Oc1cccc2cccnc12)c1cccs1
23. CCc1ccccc1NC(=O)Nc1cc(F)ccc1F
17. CSc1ncccc1C(=O)OCC(=O)NC(=O)NCCC(C)C

| compound no. | 15 | 13 | 11 | 22 | 23 | 17 |
| --- | --- | --- | --- | --- | --- | --- |
| rCAG RNA binder | -5 | -2 | 7 | -1 | -3 | 0 |
| PRMT1 FP inh | -2 | 0 | 10 | 2 | 0 | -1 |
| MBD2 DNA inh | -3 | 3 | 0 | -7 | 5 | 1 |
| SIAE primary | -5 | 0 | 4 | 6 | 0 | -2 |
| GC-B act | 0 | 8 | 3 | 5 | -6 | 0 |
| mABHD4 FP | 3 | 0 | 23 | -2 | -8 | -2 |
| TCR CD3 inh | -4 | -4 | 6 | 8 | 0 | 5 |
| TDP2 inh | 4 | -2 | 4 | 7 | 8 | -10 |
| LEDGF integ inh | 1 | 2 | 2 | -4 | 2 | 1 |
